AF4-AF9 inh: inhibitors of AF4 peptide binding to AF9, primary screen, biochemical, AlphaScreen, biotin-AF4 peptide, FLAG-AF9, single point. Protein AF-9 (Homo sapiens), P42568. inhibition, % at 10 µM. actives 0.47% (n = 350,000). AID 651704, 2012;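 active = every replicate reaching a set inhibition limit, whatever the replicate mean, cut at about 25% in these data; inconclusive = mean inhibition reaches that limit but some replicates miss it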;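 also: 0% = plate neutral control median and 100% = total signal loss; the record names both 10 and 1 µM as test concentration; the first replicate is given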
Target sequence (P42568 whole entry, looked up): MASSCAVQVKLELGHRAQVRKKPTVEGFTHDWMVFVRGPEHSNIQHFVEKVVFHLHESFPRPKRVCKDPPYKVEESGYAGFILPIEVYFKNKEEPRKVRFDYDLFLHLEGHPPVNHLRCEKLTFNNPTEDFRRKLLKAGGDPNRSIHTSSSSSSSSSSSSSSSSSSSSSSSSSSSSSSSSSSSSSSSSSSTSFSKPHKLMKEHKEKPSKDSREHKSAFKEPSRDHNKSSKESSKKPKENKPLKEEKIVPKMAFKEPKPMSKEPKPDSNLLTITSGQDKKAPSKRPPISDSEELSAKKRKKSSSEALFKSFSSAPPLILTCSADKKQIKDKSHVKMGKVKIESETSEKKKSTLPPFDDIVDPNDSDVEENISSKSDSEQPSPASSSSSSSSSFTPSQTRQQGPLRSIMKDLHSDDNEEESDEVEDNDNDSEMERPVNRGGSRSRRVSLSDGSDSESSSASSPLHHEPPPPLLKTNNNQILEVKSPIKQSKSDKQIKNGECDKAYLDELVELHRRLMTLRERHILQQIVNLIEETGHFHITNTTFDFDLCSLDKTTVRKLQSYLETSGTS
E coli growth: E. coli growth inhibition, primary screen, OD600; actives 0.21% (n = 330,000); OD600 absorbance (concentration not given with the values); Escherichia coli growth, 23 h; hits give low values;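 active = OD600 absorbance below the run mean of sample wells minus 3.6 SD, in any replicate, cut at about 0.56 in these data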;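 also: stock transfer was 300 nL into about 60 µL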
T cruzi inh: inhibitors of intracellular T. cruzi growth, primary screen, luminescence, NIH3T3 host cells; actives 1.4% (n = 300,000); T. cruzi beta-gal in NIH3T3, 90 h; inhibition, % (test concentration not listed);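 active = mean inhibition across valid replicates above about 55%, limit read from the data; inconclusive = mean below that limit but half or more replicates reach it; inactive = mean below it, under half of replicates reach it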;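 also: signal also drops with host cell toxicity which is not excluded here; 0% = plate median of DMSO wells and 100% = zero luminescence signal; higher percent means less beta-gal luminescence so fewer parasites; stock transfer was 50 nL into about 50 µL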
UCH37 DUB inh: inhibitors of human UCH37 deubiquitinase, primary screen, biochemical, Ub-AMC cleavage, fluorescence. Ubiquitin carboxyl-terminal hydrolase isozyme L5 (Homo sapiens), Q9Y5K5. purified proteasome/UCH37. inhibition, % (no concentration beside the values). actives 0.33% (n = 330,000);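 active = mean of two replicates above 20%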;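 also: 0% = compound-free wells with enzyme and 100% = wells lacking proteasome; stock transfer was 100 nL into about 20 µL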
Target sequence (Q9Y5K5 whole entry, looked up): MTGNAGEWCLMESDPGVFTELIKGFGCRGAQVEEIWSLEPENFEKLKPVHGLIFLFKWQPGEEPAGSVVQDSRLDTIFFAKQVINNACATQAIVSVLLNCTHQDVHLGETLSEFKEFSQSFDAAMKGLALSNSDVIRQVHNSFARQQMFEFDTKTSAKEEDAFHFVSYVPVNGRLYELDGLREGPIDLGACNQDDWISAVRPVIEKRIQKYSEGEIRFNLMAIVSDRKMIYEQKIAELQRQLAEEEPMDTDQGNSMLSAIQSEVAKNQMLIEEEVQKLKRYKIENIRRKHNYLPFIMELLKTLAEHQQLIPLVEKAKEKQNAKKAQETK
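system = Proteasome-associated human UCH37 deubiquitinase | amount = 0.15 nM proteasome as dispensed | medium = pH 7.4 Tris-HCl (50 mM) with ovalbumin, ATP-MgCl2, DTT | incubation = 30 min preincubation with enzyme, 25 min cleavage at room temperature | detection = AMC fluorescence 355/460 nm | read-out basis = percent inhibition | controls = no-proteasome and no-compound wells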
FGF22 binding: binders of human FGF22 protein, primary screen, FGF22 synaptogenesis inhibitor project, biophysical, thermal shift, single point | recombinant FGF22 thermal shift, SYPRO orange fluorescence; percent of sucrose octasulfate shift, DMSO zero | calls only at 9.99 µM | actives 1.5% (n = 340,000) | AID 651658, 2012;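 active = melting point raised past a set limit in the mean and every replicate; inconclusive = no clear call; three in four hits are not shown here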
Target sequence (Q9HCT0 whole entry, looked up): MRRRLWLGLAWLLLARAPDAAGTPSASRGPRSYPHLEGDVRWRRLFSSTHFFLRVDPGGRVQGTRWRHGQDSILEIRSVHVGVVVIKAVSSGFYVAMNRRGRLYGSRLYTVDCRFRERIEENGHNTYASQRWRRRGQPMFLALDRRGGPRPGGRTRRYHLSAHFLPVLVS
Ecoli rRNA inh: reduced GFP signal of wild-type E. coli, primary screen, bacterial rRNA inhibitor project, GFP/RFP fluorescence, OD600, single point; E. coli WT GFP vs humanized-ribosome RFP mutants, 24 h; hits give low values; DMSO median 0, no signal -100; GFP signal change (wild-type ribosome), % (no concentration beside the values); actives 1.6% (n = 350,000);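 active = significant combined selectivity score with lowered wild-type GFP, culture density cut under 30%, mutant RFP and density less affected; inactive = any of these conditions unmet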; also: one replicate is shown; some compounds called inactive have numbers as strong as hits
A1 inh: caspase 3/7 activation in MEF A1-2A-BIM cells, primary screen, A1 inhibitor project, cell-based, luminescence, HTS. caspase activation, % (test concentration not listed). Caspase-Glo 3/7 luminescence, 3 h; percent of clofoctol response, vehicle zero. actives 0.066% (n = 330,000);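 active = over half of replicate activation scores above 10%, or exactly half above 10 with the replicate mean above 10; inconclusive = replicate mean below 10 yet half the replicates above 10; inactive = over half of replicates below 10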;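 also: wells of about 30 µL received 50 nL stock; many hits fall short of the cut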
Beta apoptosis: inhibitors of cytokine-induced beta cell apoptosis, primary screen, luminescence; INS-1E cytokine-induced death, ATP luminescence, 48 h; percent of positive-control rescue, neutral wells zero; protection from apoptosis, % (no concentration beside the values); actives 0.8% (n = 300,000);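 active = all replicates at 75% or more, or half of them and the mean; inconclusive = half reach 75% but not the mean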;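 also: 0% = cytokine-treated negative control wells and 100% = positive control rescue; higher means more ATP so stronger rescue from cytokine killing; wells of about 40 µL received 100 nL stock; the first replicate is given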
Ecoli rRNA inh OD600: second read-out of Ecoli rRNA inh, no call of its own (marks repeat the call); OD600 change, %; measured here: OD600 growth;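 optical density of the mix in the first replicate; 0 = DMSO median and -100 = no signal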
Ecoli rRNA inh RFP: recorded beside Ecoli rRNA inh, whose call it bears; RFP signal change, %; measured here: RFP humanized mutant strains;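 first replicate; 0 = DMSO median and -100 = no signal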
* hit, by the source's call; i = inactive; ? = inconclusive; / = no result given. An excerpt. The share of hits here may be higher or lower than overall.

SMILES	AF4-AF9 inh	E coli growth	T cruzi inh	UCH37 DUB inh	FGF22 binding	Ecoli rRNA inh	Ecoli rRNA inh OD600	Ecoli rRNA inh RFP	A1 inh	Beta apoptosis
O=C(Cc1cccc(NC(=O)C2CCN(C(=O)CCc3ccccc3)CC2)c1)Nc1cccc(C(=O)N2CCCC2)c1	/	0.7	/	4.0	i	-18.8*	2.8*	7.0*	-0.1	14.6
CCc1ccc(C(C)NC(=O)/C=C/c2ccc(Br)cc2)cc1 (stereo not given)	/	0.692	9.7	6.5	/	/	/	/	-0.4	-8.5
c1ccc2c(c1)CCN2CCN1CCc2ccccc21	/	0.808	2.5	2.7	/	/	/	/	-0.5	3.0
COc1cc(NC(=O)COc2cc3oc(=O)cc(C)c3cc2Cl)cc(OC)c1OC	-4.2	0.712	9.0	6.1	i	15.4	15.8	3.0	0.5	10.7
CCn1c(/C=C/c2ccccc2Cl)nc2ccccc2c1=O	?	0.711	22.3	2.6	i	-17.9	-23.5	4.2	1.4	6.6
CC(=O)N1CCc2c(sc(NC(=O)C3CC3)c2-c2nc3ccccc3s2)C1	-1.1	0.724	30.1	-23.7	i	-3.7	-9.6	4.8	0.7	22.4
COc1ccc(OC)c(NC(=O)CSc2sc3c(O)cc(=O)[nH]c3c2C#N)c1	1.7	0.686	-6.9	9.1	/	8.0	11.4	-0.2	-0.4	-0.4
COc1ccccc1C(=O)C1CCCN(C(=O)c2ccccc2Cl)C1 (stereo not given)	-0.3	/	6.8	/	i	-9.2	-16.4	1.8	/	/
Cc1ccc(C(=O)c2coc3ccc(O)c(CN(C)C)c23)cc1	5.4	0.671	-3.3	5.7	i	15.4	13.8	3.7	-0.7	-6.8
CC(Nc1n[nH]c(=O)[nH]c1=O)C(=O)N/N=C/c1cccs1 (stereo not given)	-2.9	/	-17.0	/	i	14.9	18.1	-0.2	1.6	/
Cc1c(NC(=O)CCC2CCCCC2)c(=O)n(-c2ccccc2)n1C	5.1	0.699	9.7	-0.9	i	2.3	7.2	-0.4	0.7	-4.2
Cc1cccc(C)c1OCC(=O)NCc1nnc(SCC(=O)NC2CCCCC2C)n1C (stereo not given)	/	0.667	1.6	0.8	/	/	/	/	1.6	2.4
Cc1ccc(N2CCN(S(=O)(=O)c3nnc(NC(=O)c4ccccc4)s3)CC2)cc1	-1.7	0.695	-7.4	2.3	i	-1.8	6.6	-2.2	0.1	14.1
COc1ccc(C2C(C(C)=O)=C(O)C(=O)N2Cc2ccccc2)c(OC)c1 (stereo not given)	-2.1	0.648	10.2	9.5	i	4.9	6.4	2.4	-0.5	-1.0
O=C(O)c1cccc2c(-c3ccccc3)c(-c3ccccc3)[nH]c12	-1.8	0.662	5.2	-3.4	i	-54.0	-75.3	-28.2	-0.2	-5.0
Cc1cc(Cl)c2oc(C(=O)N3CCC(O)(c4ccccc4)CC3)c(C)c2c1	0.3	0.692	11.7	5.7	i	-24.6	-57.4	17.6	-0.5	/
CN(C)/C=C(\C#N)S(=O)(=O)C(C)(C)C	-0.8	0.698	-3.5	-1.2	i	7.2	12.1	-2.4	0.0	-10.0
CC(=O)NCc1ccc(S(=O)(=O)NC(C(=O)O)C(C)C)cc1 (stereo not given)	-1.2	0.726	-4.4	3.3	i	16.6	12.5	6.2	-0.3	-5.1
COc1ccc(C(C)NC(=O)c2ccoc2C)cc1OC (stereo not given)	/	0.722	3.2	3.7	/	/	/	/	-1.1	0.8
O=c1c2c3c(sc2nc2n1CCCS2)CCCC3	/	0.707	10.8	-1.0	/	/	/	/	-1.2	1.9
COc1cccc(NC(=O)CSc2nnc(CNC(=O)c3ccccc3F)o2)c1	-16.6	0.633	7.7	4.9	i	2.8	6.5	-0.4	-0.3	-3.0
CC(=O)N1CCOc2ccc(S(=O)(=O)NCc3ccc(C)cc3)cc21	1.1	0.707	8.0	4.6	i	0.4	-3.4	-2.7	-7.2	-1.4
Cc1cc(C(=O)NNC(=O)c2ccc(Cl)c(S(N)(=O)=O)c2)c(C)o1	-2.3	0.694	/	2.3	i	16.3	18.4	0.5	0.0	1.7
CCCc1nn(-c2cc(Cl)ccc2OC)c2c1C(=O)CCC2	2.3	0.723	-2.6	2.5	i	-1.6	-13.9	-6.1	0.3	-6.3
COc1ccc(C(CNC(=O)COc2ccccc2)N2CCOCC2)cc1 (stereo not given)	7.7	0.672	-0.2	-0.8	i	4.9	3.3	-0.2	-0.2	0.8
Continuation.
SMILES	AF4-AF9 inh	E coli growth	T cruzi inh	UCH37 DUB inh	FGF22 binding	Ecoli rRNA inh	Ecoli rRNA inh OD600	Ecoli rRNA inh RFP	A1 inh	Beta apoptosis
CSCC[C@H](NC(=O)OC(C)(C)C)c1nnc(SCC=C(C)C)o1	/	0.696	0.0	-1.5	/	/	/	/	1.1	-4.8
CC1CCCCC12NC(=O)N(Cc1cc(=O)n3ccsc3n1)C2=O (stereo not given)	-24.2	0.644	-4.1	-1.0	i	5.4	5.4	-3.0	0.2	-12.5
CC(C)COc1ccc(C(=O)OC2CC(C)(C)OCC2CN(C)C)cc1 (stereo not given)	/	0.711	17.5	2.9	/	/	/	/	-0.6	7.8
CCN(c1ccccc1)S(=O)(=O)c1cc(C(=O)OCC(=O)c2c(N)n(C)c(=O)n(C)c2=O)ccc1C	2.5	0.69	/	1.7	i	-6.8	-9.6	5.4	/	/
COc1cccc(CN2CCNC(=O)C2CC(=O)NC2CCCCC2)c1OC (stereo not given)	3.4	/	3.9	/	i	0.9	14.6	-1.1	/	/
Cc1ccc(NC(=O)C(OC(=O)c2ccc(C=O)cc2)c2ccccc2)cc1Cl (stereo not given)	/	0.696	11.8	-3.4	/	/	/	/	-0.7	-8.7
COCCc1ncc(CN2CCC(C(=O)Nc3ccc(-n4cccn4)cc3)CC2)cn1	-1.0	0.717	3.8	2.2	i	5.9	6.6	-1.0	0.0	-3.5
CC1(C)Cc2ccccc2C(NNC(=O)c2cccnc2)=N1	/	0.712	4.3	6.8	/	/	/	/	-0.3	-1.0
O=[N+]([O-])c1ccc(S(=O)(=O)N(CC(O)CN2CCCCC2)c2ccccc2)cc1 (stereo not given)	2.8	0.691	37.4	5.4	i	-6.7	9.4	-4.7	0.2	-1.9
CCN(CC)CC#CCC(C)(c1ccccc1)c1ccccc1	/	0.629	18.5	4.7	/	/	/	/	0.4	10.1
CCCCN(Cc1ccccc1)S(=O)(=O)c1ccc2c(c1)n(C)c(=O)c(=O)n2C	-1.5	0.728	3.6	-25.7	i	2.6	3.9	-1.7	0.6	11.7
COCCn1nnnc1CN1CCC(NC(=O)Nc2cccc(OC)c2)CC1	/	0.648	1.8	0.1	/	/	/	/	-0.1	-1.4
Cc1ccc(C)c(NC(=O)CN(C)C(=O)c2ccc(-c3cccc(C(F)(F)F)c3)o2)c1	-1.5	/	9.3	/	i	12.7	0.3	-1.2	3.0	-0.8
O=C(NC(CO)c1ccccc1)c1ccco1 (stereo not given)	/	0.757	6.2	0.7	/	/	/	/	1.0	-1.6
COc1ccc(CCNC(=O)CSc2nncn2N)cc1OC	/	0.697	-1.7	2.4	/	/	/	/	0.7	3.3
Cc1ccc(C(=O)C(NC(=O)c2ccco2)N2CCOCC2)cc1 (stereo not given)	/	0.698	-0.8	3.7	/	/	/	/	-1.0	1.5
CC(C)(C)C1CCc2c(sc(NC(=O)C3CCCO3)c2C(N)=O)C1 (stereo not given)	/	0.665	20.0	1.0	/	/	/	/	1.2	4.4
Cc1ccc(C)c(NC(=O)CN(C)C(=O)Cc2coc3cc(C)c(C)cc23)c1	/	0.63	3.1	-3.1	/	/	/	/	0.6	0.5
Cc1cccc(C(=O)Nc2ccc(C(=O)N3CCCCC3C)cc2)c1 (stereo not given)	0.8	0.68	-7.5	4.2	i	-4.1	-10.7	1.0	-5.5	0.7
O=C(NCCNc1ccc([N+](=O)[O-])cc1)c1ccco1	5.0	0.676	17.0	9.5	i	11.4	5.9	5.7	-0.2	-3.0
Cc1cccn2c(CN(C)CCC3CCCCO3)c(C(=O)N3CCCCC3)nc12 (stereo not given)	-2.7	0.632	10.3	-1.5	i	0.7	3.0	-2.2	-0.2	-4.3
NC(N)=NN=C1CCCCCCCCCCC1	1.3	0.695	31.0	5.5	i	/	/	/	0.6	18.5
COC(=O)Cn1c(=NC(=O)c2ccc([N+](=O)[O-])s2)sc2cc(Br)ccc21	/	0.736	47.6	5.5	/	/	/	/	0.5	6.1
CCC1(C2=CCCCC2)C(=O)NC(=S)N=C1N (stereo not given)	-5.2	0.68	/	8.0	i	-4.8	-1.6	-2.2	/	/
CC(C(=O)Nc1ccccn1)(c1ccccc1)c1ccccc1	5.6	0.664	17.5	-1.1	i	-16.4	-10.8	0.7	-0.4	-3.2
The list goes on.
SMILES	AF4-AF9 inh	E coli growth	T cruzi inh	UCH37 DUB inh	FGF22 binding	Ecoli rRNA inh	Ecoli rRNA inh OD600	Ecoli rRNA inh RFP	A1 inh	Beta apoptosis
Cc1nc2ncnn2c(C)c1CCC(=O)NC(C)c1ccc2c(c1)OCCO2 (stereo not given)	/	0.739	5.7	2.9	/	/	/	/	0.5	0.6
Cc1ccc(NNC(=O)c2cccs2)cc1Cl	-0.9	0.604	/	1.3	i	/	/	/	-0.2	-0.5
CCOC(=O)CSC1=C(C#N)C(c2sccc2C)CC(=O)N1 (stereo not given)	/	0.718	-44.4	1.2	/	/	/	/	0.0	10.9
CC(C)(C)NC(=O)NC(=O)COC(=O)C1(C)CC1(Cl)Cl (stereo not given)	-2.4	0.707	-15.5	2.0	i	5.1	4.4	10.1	-0.5	-4.5
O=C(Nc1cccc2c1CCCC2)c1ccc(Br)o1	/	0.695	-21.1	6.4	/	/	/	/	0.0	-3.4
COc1ccccc1NC(=O)CSc1nc(N)cc(N)n1	/	0.733	3.2	4.4	/	/	/	/	0.4	3.9
COc1ccccc1NCC(=O)c1ccc(C)c(C)c1	-1.0	0.699	1.2	4.8	i	-5.0	2.9	-4.3	-0.4	-2.3
O=C(N/N=C/c1cccnc1)c1ccccc1OCc1ccc(Br)cc1	0.3	/	17.7	/	/	-41.8	-61.9	1.3	1.3	/
CCN(C(=O)COC(=O)Cn1c(C)csc1=O)c1c(N)n(Cc2ccccc2)c(=O)[nH]c1=O	-0.6	0.664	-8.2	3.6	i	9.4	5.1	3.6	1.1	-2.7
Cc1ccccc1NC(=O)c1c(C)cc(=O)oc1C	1.8	0.658	-4.4	1.2	i	7.1	11.0	-2.7	0.6	-0.7
CC1(C(=O)Nc2ccc3ccccc3c2)CC1(Br)Br (stereo not given)	0.6	0.713	-1.2	1.0	i	11.9	1.8	-1.9	-0.7	2.8
Cc1ccc(S(=O)(=O)N2CCN(CCc3ccccc3)CC2)c(C)c1	1.5	0.661	-1.5	2.5	i	-20.4	-44.8	-2.6	0.8	2.4
